# Screening data (PubChem BioAssay)
# Mtb hypoxia rep – Mtb hypoxia fluorescent reporter inhibition; M. tuberculosis hypoxia-regulated fluorescent reporter, fluorescence; fluorescence inhibition, % (no concentration beside the values); 0.1% of 300,000 active;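 active = 35 to 45% if threefold the growth effect, above 45% if 1.5-fold the growth effect; inactive = the rest, general growth blockers included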;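 also: wells of about 50 µL received 100 nL stock; 0% = vehicle wells and 100% = reference inhibitor wells; whole bacteria with a GFP reporter of the hypoxia response; strong numbers were not always called active; many hits fall short of the cut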
# Bead autofluor – compound fluorescence in toxin protease inhibitor counterscreen; compound autofluorescence counterscreen, microsphere flow cytometry; active compounds read high; fluorescence intensity (concentration not given with the values); 3.1% of 360,000 active; AID 624483;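 active = at least 3 SD above the mean of all compounds, about 16000 in these data; inconclusive = too few beads counted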;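 also: 100 nL of 1 mM stock went into each well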
# PrP UTR inh – suppresses PrP 5' UTR mRNA reporter expression; cell-based PrP 5' UTR mRNA reporter, plate reader; inhibition, % (concentration not given with the values); 0.35% of 340,000 active; AID 488862;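 active = every replicate at 50% or more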;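 also: 0 = median of the neutral control wells; tested in H4 reporter cells; numbers are from one replicate; inactives centre near -14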
# Sa ugtP lethal – growth inhibition of S. aureus ugtP deletion strain; S. aureus RN4220 ugtP deletion, OD600 growth, 16 h; some inactives read as strong as hits; growth inhibition, % (no concentration beside the values); 0.54% of 330,000 active; AID 1259309;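 active = z-score under -3 and OD600 up to 0.15 on both plates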;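 also: plate controls were untreated wells for no effect and antibiotic for full effect; wells of about 80 µL received 100 nL stock; the first replicate is given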
# BJeLR viability – BJeLR cell viability loss. 0.17% of 300,000 active. AID 1554. inhibition, % (concentration not given with the values). BJeLR (HRASV12) viability, CellTiter-Glo ATP luminescence, 48 h; reference of the scale not given here;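 active = replicate mean above 50%; inconclusive = above 50% but judged a plate artefact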;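 also: 50 nL library stock added to about 25 µL; numbers are from one replicate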
# RN4220 kill – S. aureus RN4220 growth inhibition; OD600, 16 h; inhibition, % (no concentration beside the values); 0.33% of 330,000 active; AID 1259311;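 active = z-score of -3 or lower and OD600 up to 0.18 on both plates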;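 also: plate controls were untreated cells for no effect and reference antibiotic for full effect; stock transfer was 100 nL into about 80 µL; one replicate is shown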
# Mtb hypoxia rep growth – second read-out of Mtb hypoxia rep, no call of its own (marks repeat the call); growth inhibition, %; measured here: M. tuberculosis growth (absorbance);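 0% = vehicle and 100% = reference antibiotic; read after six days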
# Active calls of the source: *; ? = inconclusive; · = no result given.
SMILES,Mtb hypoxia rep,Mtb hypoxia rep growth,Bead autofluor,PrP UTR inh,Sa ugtP lethal,BJeLR viability,RN4220 kill
CCC(=O)N1c2ccc(S(=O)(=O)N3CCOCC3)cc2CC1C (centres undefined),-5,1,5430,-10,-3,-2,0.9
COc1ccc(C(CNC(=O)c2cccc(NS(=O)(=O)c3ccc(C)c(F)c3)c2)N(C)C)cc1 (centres undefined),9,8,4757,-24,0,2,1.5
O=C(CNC(=S)N(Cc1ccccc1)Cc1ccccc1F)NCCc1ccc(Cl)cc1,-1,1,4381,-24,-14,-33,-3.9
Nc1ccccc1SC1CC(=O)N(Cc2ccccc2)C1=O (centres undefined),1,-5,4542,-20,3,-1,2.8
C/C(=N/NC(=O)c1ccc2c(c1)OCO2)c1cccc(NC(=O)C(C)(C)C)c1,·,·,4201,-30,·,7,·
Cc1ccc(-c2nn(-c3ccccc3)cc2C(=O)NCCCN2CCOCC2)cc1,-2,11,5735,7,-2,1,2.2
COc1cc(NC(=O)NCC2CCN(Cc3ccc(C)cc3)CC2)cc(OC)c1OC,-3,8,3762,-21,4,-3,-1.3
[O-][n+]1nc2ccccc2c2ccccc21,0,9,3826,-2,5,·,2.7
CCCn1nc(C(=O)OCC(=O)Nc2ccc(C)cc2)c2ccccc2c1=O,-4,10,3985,-18,13,·,2.2
CC1(c2ccc(Cl)cc2)NC(=O)N(CC(=O)NCCC2=CCCCC2)C1=O (centres undefined),3,8,3511,-34,-3,·,1.7
Fc1cc(Br)ccc1Nc1nc2ccccc2n2nnnc12,6,1,5883,-23,11,2,-2.6
CCOC(=O)n1c(SCC(=O)N(CC)CC)nc2ccccc21,-1,0,·,-11,-3,-9,6.2
CC(=NNc1ccc(C)c(Cl)c1)c1cccnc1,-1,5,·,·,7,·,3.0
COc1cccc(CNC(=O)CCNS(=O)(=O)c2cccc3nonc23)c1,1,3,3874,-26,1,2,2.9
O=c1ncn(-c2cccc(Cl)c2)c2ccccc12,-4,-4,13159,-12,4,1,2.1
COc1cc(C=NNS(=O)(=O)c2ccc3ccccc3c2)ccc1OCc1ccc(C(=O)O)cc1,15,6,·,·,17,·,18
NC(=S)N/N=C/c1ccc(-c2ccccc2)o1,·,·,4317,-49,·,17,·
Cc1cccc(OCC(=O)NCC(=O)N/N=C/c2ccccc2)c1,·,·,4189,-18,·,0,·
COc1cccc(CC(=O)N2CCN(Cc3cccc(Cl)c3)CC2)c1,11,10,3930,-20,11,6,1.9
CCOC(=O)C1(c2ccccc2)CCN(CC(=O)Nc2cccc3ccccc23)CC1,11,2,2563,-16,-5,7,5.9
Cc1cc(S(=O)(=O)N2CCCC2)ccc1OCC(=O)N1CCCCC1,·,·,5296,-21,·,5,·
CCC(CO)NC(=O)c1cccc(S(=O)(=O)N2c3ccccc3CC2C)c1 (centres undefined),9,6,2492,-8,15,9,30
O=P1(Nn2cnnc2)C=C(c2ccccc2)OC(c2ccccc2)=C1,-2,5,10806,2,2,6,0.4
C/C(=N\NC(=O)c1ccccc1)c1c(O)n(C2CCCCC2)c(=O)[nH]c1=O,9,-8,5633,-22,9,-7,5.6
CC(=O)Nc1ccc(S(=O)(=O)N2CCc3c(Cl)cccc3C2)cc1,-1,1,5536,-4,-13,2,9.9
CC1CN(S(=O)(=O)c2cccc(C(=O)OCC(=O)NCc3ccccc3)c2)CC(C)O1 (centres undefined),-1,6,·,-62,2,·,5.9
COCCCNC(=O)C(=O)NC1CCCCC1C (centres undefined),11,5,4795,-11,1,6,4.6
C#CCN1C(=O)C(O)(CC(=O)/C=C/C=C/c2ccccc2)c2ccccc21 (centres undefined),6,10,4300,31,9,-2,1.5
O=[N+]([O-])c1ccccc1S(=O)(=O)Oc1ccc(C(=S)N2CCOCC2)cc1,1,11,2124,1,11,11,11
O=C(Nc1ncccc1O)c1ccc(Cl)c(S(=O)(=O)N2CCCCC2)c1,-2,-2,·,-6,2,-4,4.8
Clc1ccccc1Cn1nnc2c(NCC3CC3)ncnc21,19,12,6694,-6,31,-13,1.0
S=C(NCCCc1ccccc1)NC1CCCCC1,-1,1,5663,-13,2,-12,-2.4
COc1cc(OC)c(OC)cc1CNC(=O)CCN1C(=O)c2cccc([N+](=O)[O-])c2C1=O,0,3,3828,-18,4,2,2.0
Cn1c(SCc2cccc(Br)c2)nc2ccccc2c1=O,6,4,4116,-24,-1,8,13
COc1ccccc1Nc1nc(-c2sc(NC(=O)c3ccccc3)nc2C)cs1,8,9,3884,-3,-31,7,4.5
CC(C)c1ccc(NC(=O)CSc2nc(-c3ccccc3F)nc3nc[nH]c23)cc1,13,-8,2576,-6,-3,-7,9.9
CC(=O)c1cccc(NC(=O)CCN2C(=O)C3C4CCC(C4)C3C2=O)c1 (centres undefined),9,5,?,-1,-2,-6,-2.7
O=C(CNC(=O)c1ccc2c(c1)OCCO2)NN=Cc1ccco1,7,7,·,·,6,·,2.2
CCC(=O)Nc1ccc(NC(=O)CSc2nnnn2-c2ccc3c(c2)OCCO3)cc1,-3,-1,2114,-16,0,-6,3.7
CC(C)(C)OC(=O)NCCCC[C@@H](C(=O)NCCCCCCCCCCC(=O)N1CCN(C(=O)OC(C)(C)C)CC1)n1cc(CCO)nn1,·,·,2832,-32,·,-11,·
Cc1ccccc1-c1nc(CS(=O)CC(=O)NCc2ccccn2)c(C)o1 (centres undefined),6,-2,6143,-12,-6,0,4.0
CCOC(=O)CSc1nc(C(C)C)nc2sc(C)c(C)c12,9,-8,4645,-22,89*,-5,10.0
O=C1C(=O)N(C2CCCC2)C(=O)N1Cc1c(F)cccc1Cl,-2,-4,4510,-18,1,-1,-0.9
COC(=O)C1=C(N)c2c(F)cccc2C1(C#N)c1ccc(F)cc1 (centres undefined),17,9,2869,-22,8,9,4.1
Cc1ccc(C(=O)NC(=S)NNC(=O)COc2ccccc2C)cc1,·,·,4345,-29,·,-5,·
CCOc1ccccc1NC(=O)CCn1nc(C)c(S(=O)(=O)N2CCCCC2)c1C,14,0,6305,-25,4,22,6.2
Cc1ccccc1OCc1nnc(SCC(=O)Nc2ccc3c(c2)OCO3)n1C,-1,-5,8622,-14,8,-1,4.4
NC(=O)Cn1c(=O)n(Cc2ccco2)c(=O)c2c3c(sc21)CCCCC3,-5,17,18631*,-3,-6,4,1.6
COc1cc(C2N(c3cc(C)on3)C(=O)C3CCCN32)cc(OC)c1OC (centres undefined),16,7,3544,-9,5,3,2.1
CC(=O)N1CCN(C(=O)c2cc(-c3ccc(Cl)s3)nc3ccccc23)CC1,-6,-3,5570,-23,4,10,-0.2
Cc1ccccc1OCC(=O)NN=Cc1c(C)nn(-c2ccccc2)c1Cl,5,5,·,·,12,·,2.3
O=C(CNc1ccccc1F)NN=CC1CC=CCC1 (centres undefined),10,2,·,·,6,·,7.9
COc1ccc(N2C(=O)CC(N3CCC(O)(c4ccc(Br)cc4)CC3)C2=O)cc1 (centres undefined),·,·,2573,10,6,-3,1.9
COc1cc(NC(=O)Cn2cnc(C(=O)Nc3ccc(C)c(C)c3)n2)cc(OC)c1OC,-17,-7,3709,-15,6,·,5.9
Cc1nc(SCC(=O)Nc2ccnc3ccccc23)n[nH]1,-12,-2,6019,-23,2,-6,3.3
Clc1ccc(C2=Nn3c(nnc3-c3cccnc3)SC2)s1,1,1,2837,11,-3,-1,5.8
O=S(=O)(Cc1ccccc1Cl)NCc1ccccc1,4,2,4463,-19,-1,-1,9.5
CCCn1nnnc1NCc1ccccc1OCC,·,·,3978,-9,·,5,·
CCOC(Cn1c(SCC(=O)Nc2cc(C)on2)nc2ccccc2c1=O)OCC,12,8,5482,-8,9,-5,2.0
O=C(NCc1ccc(F)cc1)c1ccc(S(=O)(=O)N2CCCCC2)cc1,8,2,3760,-13,3,·,3.3
# The listing continues.
SMILES,Mtb hypoxia rep,Mtb hypoxia rep growth,Bead autofluor,PrP UTR inh,Sa ugtP lethal,BJeLR viability,RN4220 kill
O=C(CO/N=C1\CCCc2nonc21)Nc1ccccc1Cl,·,·,9588,-18,·,8,·
COc1ccc(N2C(=O)CC(NCc3cccc(F)c3)C2=O)cc1 (centres undefined),6,12,2967,-9,4,-5,3.9
Cc1cc(C(=O)Nc2cccc(C)c2C)n(-c2ccccc2)n1,10,13,4061,-25,5,6,-0.3
Cc1ccccc1NN=Cc1sc(=O)n(Cc2cccc(C(=O)O)c2)c1Cl,5,5,·,·,-4,·,2.5
O=C(CN1C(=O)C2CC=CCC2C1=O)Nc1nc2ccccc2[nH]1 (centres undefined),13,9,5258,-29,-7,-3,6.9
CCCN(CCC)S(=O)(=O)c1ccc(C(=O)O)cc1,0,-1,4305,-16,3,1,5.6
Cc1cc(NS(=O)(=O)c2ccc(NC(=O)CSc3nc4ncc(Cl)cc4[nH]3)cc2)nc(C)n1,·,·,4415,-27,·,-11,·
Fc1ccccc1CCNc1nnnn1-c1ccccc1,1,6,3293,-7,6,6,3.1
Cc1ccc(CNC(=O)C2(C)Oc3ccccc3NC2=O)cc1 (centres undefined),·,·,2275,12,8,-10,4.7
COc1ccc(NC(=S)NCC(c2ccco2)N2CCCC2)cc1 (centres undefined),0,0,4857,-23,5,2,5.6
CCn1nnnc1-c1ccc(OC)c(S(=O)(=O)NCc2ccccc2)c1,15,9,3452,-5,10,-10,6.2
Cc1nc2cc(C(F)(F)F)ccc2n1CCNc1nc(-c2ccc([N+](=O)[O-])c(Cl)c2)cs1,4,4,3657,1,-31,5,-9.3
c1ccc(CCC2CCC(CCc3ccccc3)N2)cc1 (centres undefined),0,-5,·,·,3,·,5.2
COc1cccc(CN(C)C(=O)CCNC(=O)c2ccco2)c1,-9,0,4067,4,-3,·,-1.9
COc1ccc(-c2csc(Nc3ccc(S(N)(=O)=O)cc3)n2)cc1,3,6,8779,-20,-13,9,14
Cc1cc(C)nc(NC(=O)c2ccc([N+](=O)[O-])c(C)c2)n1,6,-1,3446,-10,4,-1,5.9
Cc1cc(OC(C)C(=O)NC(Cc2c[nH]c3ccc(O)cc23)C(=O)O)c2c(C)c(C)c(=O)oc2c1 (centres undefined),·,·,5394,-14,1,-4,2.8
C/C(=N/OC(=O)c1ccccc1)c1oc(C)nc1C,·,·,4471,-30,·,6,·
Cc1ccc(O)c(CNc2cccc3cccnc23)c1,14,2,3993,-45,1,-41,18
Cc1ccc2nc(SC(C)C(=O)N3CC(C)OC(C)C3)[nH]c2c1 (centres undefined),7,1,4149,-15,2,6,-3.4

# 2 compounds drawn at random from the list so far:
SMILES,Mtb hypoxia rep,Mtb hypoxia rep growth,Bead autofluor,PrP UTR inh,Sa ugtP lethal,BJeLR viability,RN4220 kill
Cc1ccccc1NN=Cc1sc(=O)n(Cc2cccc(C(=O)O)c2)c1Cl,5,5,·,·,-4,·,2.5
Cc1ccc(O)c(CNc2cccc3cccnc23)c1,14,2,3993,-45,1,-41,18

# Additional compounds follow.
SMILES,Mtb hypoxia rep,Mtb hypoxia rep growth,Bead autofluor,PrP UTR inh,Sa ugtP lethal,BJeLR viability,RN4220 kill
CCc1ccc(S(=O)(=O)NCCc2cn3cccc(C)c3n2)s1,-5,8,2480,-9,2,·,8.9
Cc1ccc(NC2=NCCCS2)cc1Cl,11,3,3457,-18,11,-14,2.8
COC(=O)NNC(=O)c1ccccc1C,2,1,22876*,-1,1,4,2.7
Cc1ccc(CNC(=O)c2cc(C)nn2-c2ccccc2)cc1,17,4,4071,-25,3,5,10
CCc1ccc2c(COC(=O)c3n[nH]c4ccccc34)cc(=O)oc2c1,-6,4,9854,-77,-43,-22,2.5
O=C(c1cc(-c2ccc(Cl)c(Cl)c2)on1)N1CCN(c2ccccc2)CC1,3,0,21958*,-24,-3,-19,-0.5
O=C(O)CCN1C(=O)/C(=C\c2cccc(OCc3ccccc3)c2)SC1=S,5,16,4552,9,-8,-5,0.3

# Compound profiles, as listed above:
# CCOC(=O)n1c(SCC(=O)N(CC)CC)nc2ccccc21 is listed with Mtb hypoxia rep: -1; Mtb hypoxia rep growth: 0; Bead autofluor: ·; PrP UTR inh: -11; Sa ugtP lethal: -3; BJeLR viability: -9; RN4220 kill: 6.2
# CC(=O)Nc1ccc(S(=O)(=O)N2CCc3c(Cl)cccc3C2)cc1 is listed with Mtb hypoxia rep: -1; Mtb hypoxia rep growth: 1; Bead autofluor: 5536; PrP UTR inh: -4; Sa ugtP lethal: -13; BJeLR viability: 2; RN4220 kill: 9.9
# Cc1cc(C(=O)Nc2cccc(C)c2C)n(-c2ccccc2)n1 is listed with Mtb hypoxia rep: 10; Mtb hypoxia rep growth: 13; Bead autofluor: 4061; PrP UTR inh: -25; Sa ugtP lethal: 5; BJeLR viability: 6; RN4220 kill: -0.3
